# Screens deposited in PubChem BioAssay by ICCB-Longwood Screening Facility, Harvard Medical School.
# Polio RdRp inh: inhibitors of poliovirus RNA polymerase binding and polymerization | % elongation, % (compound at 16.7 µg/mL) | poliovirus polymerase elongation, fluorescence polarization; stronger effect = lower value | P03300 | hit rate 0.66% among 150,000; in the data active = % elongation below about 90%; note: some results filed as inactive read as strong as hits
# Target sequence (P03300 1749-2209 limits assumed): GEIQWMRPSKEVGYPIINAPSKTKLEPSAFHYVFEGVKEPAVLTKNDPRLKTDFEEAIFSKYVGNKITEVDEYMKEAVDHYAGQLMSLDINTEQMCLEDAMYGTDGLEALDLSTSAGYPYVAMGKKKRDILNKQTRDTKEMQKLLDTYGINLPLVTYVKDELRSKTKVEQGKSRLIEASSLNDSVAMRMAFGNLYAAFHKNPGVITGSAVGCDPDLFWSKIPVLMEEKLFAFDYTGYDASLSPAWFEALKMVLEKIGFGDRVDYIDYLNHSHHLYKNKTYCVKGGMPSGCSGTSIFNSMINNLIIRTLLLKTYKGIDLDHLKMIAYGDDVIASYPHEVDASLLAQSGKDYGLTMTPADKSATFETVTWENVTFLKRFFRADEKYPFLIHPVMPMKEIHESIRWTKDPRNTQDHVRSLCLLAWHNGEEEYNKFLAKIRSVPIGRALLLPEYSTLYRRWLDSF
# Polio RdRp inh intensity: also measured in Polio RdRp inh; calls as there; % elongation; measured here: total intensity read-out; formula for this scale not given here;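 total fluorescence in place of polarization; lower means less elongation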
# Numbers without * were called inactive.
# Under each structure: Polio RdRp inh	Polio RdRp inh intensity
Cc1ccc(NC(=O)N2CCc3c(sc4c3CCCC4)C2c2ccccc2)cc1F (stereo unspecified)
→ 104	113
Cc1cc(C)c(S(=O)(=O)NCc2csc(-c3ccccc3)n2)c(C)c1
→ 106	110
CCC1=C(c2ccc(C)cc2)S(=O)(=O)N=C1N1CCC(C(=O)NCc2ccc(N(C)C)cc2)CC1
→ 106	106
CCC(CC)C(=O)Nc1cccc(-c2nc3cccnc3s2)c1
→ 100	108
CCCSc1nnc2c(n1)OC(c1sccc1C)Nc1ccccc1-2 (stereo unspecified)
→ 106	101
CC1=C(C(=O)OCC(C)C)C(c2ccc(OCc3ccccc3)cc2)N2C(=O)CCSC2=N1 (stereo unspecified)
→ 104	105
CCC(CC)C(=O)Nc1nnc(S(=O)(=O)N2CCc3ccccc32)s1
→ 112	114
COc1ccccc1CNC(=O)c1cc(Sc2cccc(Cl)c2)nc2ccccc12
→ 121	115
COc1ccc(NCc2cccn2-c2nnc(N3CCC(C)CC3)s2)c(OC)c1
→ 100	104
COC(=O)c1ccc(-n2c(/C=C/c3cc(OC)c(OC)c(OC)c3)nc3cc(Cl)ccc3c2=O)cc1
→ 109	108
CCc1ccc(NC(=O)CSc2nnc3[nH]c(=O)cc(-c4ccccc4)n23)cc1
→ 109	105
CCOC(=O)c1cccc(NC(=O)CCc2c(C)nc3cc(-c4ccc(Cl)cc4)nn3c2C)c1
→ 106	106
CCOC(=O)COc1ccc(CC)cc1C(=O)c1ccn2nc(-c3ccc(Cl)cc3)cc2n1
→ 106	108
COc1ccc(CCNc2nc3c(-c4cccc(F)c4)nnn3c3ccccc23)cc1OC
→ 105	106
COc1ccc(S(=O)(=O)c2c(Nc3ccc(C)cc3C)sc(C(=O)c3ccc(F)cc3)c2N)cc1
→ 114	109

# More structures:
# Under each structure: Polio RdRp inh	Polio RdRp inh intensity
COc1cccc(NC(=O)N(Cc2cn(C)c3ccccc23)C2CCCCCC2)c1
→ 110	107
CCOc1ccc(S(=O)(=O)NCCc2c(C)[nH]c3c(Cl)cccc23)cc1C
→ 104	108
COc1ccccc1N1CCN(C(=O)CCc2c(C)nn(-c3ccc(N4CCCC4)nn3)c2C)CC1
→ 108	110
Fc1ccc(-n2ncc3c(NCCCc4ccccc4)ncnc32)cc1
→ 107	99
COc1ccc2oc(=O)c(-c3nc(-c4ccc(C)c(C)c4)cs3)cc2c1
→ 111	120
Cc1ccc(CN(C(=O)COc2ccc([N+](=O)[O-])cc2)c2ccccn2)o1
→ 111	108
CCOC(=O)Cn1c(=O)n(C2CCCCC2)c2nc(-c3c(F)cccc3Cl)nc(C(N)=O)c21
→ 110	114
CCCCN(CCCC)CC(O)Cn1cc(/C=C/C(=O)c2ccccc2)c2ccccc21 (stereo unspecified)
→ 110	115
CCS(=O)(=O)c1nc2ccccc2n1CC(=O)Nc1ccccc1C(=O)OC
→ 105	109
Cc1ccc2[nH]cc(C(c3ccccc3)c3ccc(Cl)s3)c2c1 (stereo unspecified)
→ 107	109
CC1=C(C(=O)Nc2ccc(C)cc2C)C(c2ccccc2)n2ncc(C(=O)Nc3ccccc3)c2N1 (stereo unspecified)
→ 99	104
Cc1c(C(=O)N2CCC(C)CC2)c(S(=O)(=O)NCc2ccc(Cl)cc2)c(C)n1C
→ 114	106
Cc1ccccc1CN1c2ccccc2-c2nc(SCC(=O)c3ccc(Cl)cc3)ncc2S1(=O)=O
→ 111	118
COc1ccc(C(=O)n2nc(N)c3cc4ccc(C)cc4nc32)cc1OC
→ 107	109
Cc1nn(C(C)C(=O)NC2CCC(C)CC2)c(=O)c2cc3sccc3n12 (stereo unspecified)
→ 111	110

# Next section
# Under each structure: Polio RdRp inh	Polio RdRp inh intensity
COc1ccc(NC(=O)CN2C(=O)COc3ccc(S(=O)(=O)N4CCCCC4)cc32)cc1OC
→ 102	107
COc1ccc(-c2noc(-c3ccc(N4CCN(C)CC4)c([N+](=O)[O-])c3)n2)cc1
→ 107	102
CCCc1nnc(NC(=O)c2nc(S(=O)(=O)Cc3ccc(C)cc3)ncc2Cl)s1
→ 104	108
Cc1ccc(NC(=O)/C(C#N)=C/c2ccccc2Cl)cc1C
→ 100	102
O=c1c2oc3ccccc3c2n(Cc2cccc(C(F)(F)F)c2)c(=O)n1Cc1ccc2c(c1)OCO2
→ 110	100
Cc1c(Cl)ccc2sc(N3CCN(C(=O)c4ccco4)CC3)nc12
→ 104	109
Cc1ccc(CNC(=O)C2CCCN(S(=O)(=O)c3cccc4nsnc34)C2)cc1 (stereo unspecified)
→ 114	109
Cc1ccccc1Cn1c(CCCNC(=O)C2CCCCC2)nc2ccccc21
→ 108	114
CCC(=O)C1=C(c2ccc(OC)c(OC)c2)N(C(=O)CC)n2c(CC)nnc2S1
→ 98	102
COc1ccc(NS(=O)(=O)c2ccc3[nH]c4c(c3c2)CCCC4)cc1OC
→ 96	95
Cc1ccc(NC(=O)C(C)Sc2nc(=O)cc(N)n2-c2ccccc2)cc1 (stereo unspecified)
→ 101	103
Cc1cc(OCCCn2c(CCNC(=O)C3CCCCC3)nc3ccccc32)ccc1Cl
→ 106	108
O=C(CCn1c(=O)c2cccn2c2cccnc21)NCc1ccccc1F
→ 107	93
CCOc1ccc(C(=O)Nc2nc(-c3ccc(Br)cc3)ns2)cc1
→ 110	106
Cc1ccc(C)c(S(=O)(=O)c2nnn3c2nc(NCc2ccc4c(c2)OCO4)c2sccc23)c1
→ 108	106

# Ordered by number of heavy atoms (largest number first): 4 of the compounds above
# Under each structure: Polio RdRp inh	Polio RdRp inh intensity
Cc1ccc(C)c(S(=O)(=O)c2nnn3c2nc(NCc2ccc4c(c2)OCO4)c2sccc23)c1
→ 108	106
Cc1cc(OCCCn2c(CCNC(=O)C3CCCCC3)nc3ccccc32)ccc1Cl
→ 106	108
CCCc1nnc(NC(=O)c2nc(S(=O)(=O)Cc3ccc(C)cc3)ncc2Cl)s1
→ 104	108
Cc1c(Cl)ccc2sc(N3CCN(C(=O)c4ccco4)CC3)nc12
→ 104	109

# The results go on:
# Under each structure: Polio RdRp inh	Polio RdRp inh intensity
Cc1ccc(-c2cn3cccnc3n2)cc1NC(=O)C(C)(C)Oc1ccc(Cl)cc1
→ 110	117
COc1ccccc1C(=O)Nc1c(C(=O)N2CCN(c3ccc(F)cc3)CC2)oc2ccccc12
→ 110	112
COc1ccc(NC(=O)C(=O)NCC2(c3ccc(OC)c(OC)c3)CCCC2)cc1
→ 111	107
CCc1cccc(C)c1NS(=O)(=O)c1ccc(-c2cc(C)no2)s1
→ 109	114
O=C(CCS(=O)(=O)c1nc(-c2ccc3c(c2)OCO3)cc(C(F)(F)F)n1)Nc1ccc(Br)cc1
→ 106	113
COC(=O)c1c(SCC(=O)Nc2cc(F)ccc2F)[nH]c2ccc(C)cc2c1=O
→ 122	122
CCOC(=O)c1cc2c(=O)n3ccccc3nc2n(C(C)C)c1=NC(=O)c1cc2ccccc2o1
→ 107	113
COc1ccc(C(CC(=O)Nc2ccc(Br)cn2)N2Cc3ccccc3C2=O)cc1 (stereo unspecified)
→ 105	110
COC(=O)c1cc(NC(=O)Cn2nc(-c3ccc(C)c(C)c3)ccc2=O)cc(C(=O)OC)c1
→ 108	110
CCOC(=O)c1c(S(=O)(=O)N2CCN(c3ccccc3OC)CC2)c(C)n(C)c1C
→ 105	104
Cc1ccc(Cl)cc1N(C)C(=O)c1noc2c1CCCCC2
→ 103	111
CCOc1ccc(CCn2c3c(c(=O)[nH]c2=O)C(NC(=O)c2ccccc2)(C(F)(F)F)C(=O)N3)cc1OCC (stereo unspecified)
→ 104	107
COc1ccc(CCNc2nc(-c3ccccc3OC)cc(C(F)(F)F)n2)cc1OC
→ 101	101
Cc1ccccc1NC(=O)CN(C)S(=O)(=O)c1cccc2nsnc12
→ 103	111
Cc1cccc(N(C)S(=O)(=O)c2ccc3c(c2)NC(=O)CC(=O)N3)c1
→ 111	113

# Going on with the list:
# Under each structure: Polio RdRp inh	Polio RdRp inh intensity
Cc1nc2ccn(Cc3cccs3)c(=O)c2cc1C(=O)Nc1ccccc1
→ 107	107
Cc1cc(C)c(S(=O)(=O)NCC(c2ccc(N(C)C)cc2)N2CCOCC2)c(C)c1 (stereo unspecified)
→ 107	113
Cc1cc(OC(C)C(=O)N(Cc2ccc(N(C)C)cc2)Cc2ccco2)ccc1Cl (stereo unspecified)
→ 110	102
COc1cccc(Oc2nc3c(c(=O)n(Cc4ccccc4Cl)c(=O)n3C)n2C)c1
→ 106	107
COc1ccc(C(=O)c2cn(CC(=O)Nc3cc(OC)cc(OC)c3)c3ccc(OC)cc3c2=O)cc1
→ 98	97
Cc1ccc2oc(=O)c3cnn(CC(=O)N4CCN(c5cccc(C(F)(F)F)c5)CC4)c3c2c1
→ 108	107
CCCc1cc(=O)[nH]c2nnc(SCC(=O)Nc3ccc(OC)cc3)n12
→ 101	98
CCOc1ccc(NC(=O)c2oc3ccccc3c2NC(=O)C(C)Oc2ccccc2)cc1 (stereo unspecified)
→ 101	101
CCS(=O)(=O)N1CCC2(CC1)OC(=O)C(C)=C2C(=O)NCc1cccc(Cl)c1
→ 106	113
CCc1ccc(CNC(=O)c2sc3ncccc3c2-n2c(C)ccc2C)cc1
→ 100	108
Cc1ccc(C(C)C)c(OCCCn2c(=O)oc3ccc(C)cc32)c1
→ 102	107
COCCN(Cc1ccc(C)c(Br)c1)S(=O)(=O)c1ccc2[nH]c(=O)ccc2c1
→ 102	107
CCOc1ccc(-n2nc3ccc(NC(=O)COc4ccccc4C)cc3n2)cc1
→ 103	107
Cc1c(-c2ccccc2)n(-c2ccccc2O)c2nc3c(c(=O)n(C)c(=O)n3C)n12
→ 106	109
Cc1cccc(NC(=O)C2CCCN(c3nc4ccccc4s3)C2)c1C (stereo unspecified)
→ 112	111

# Other compounds:
# Under each structure: Polio RdRp inh	Polio RdRp inh intensity
O=S(=O)(NCCc1cn2ccsc2n1)c1ccc(Cl)cc1
→ 108	100
COc1cccc(NC(=O)N(Cc2c[nH]c3ccccc23)C2CCCCCC2)c1
→ 108	108
CCc1cccc(NC(c2ccccc2)c2nnc(-c3ccccc3F)o2)c1 (stereo unspecified)
→ 104	106
COc1ccc(NC(=O)c2ccc3c(SCC(=O)O)c4c(nc3c2)CCC4)c(OC)c1
→ 109	103
Cc1ccc(Cc2cnc(NC(=O)c3ccc4c(c3)CC(c3ccccc3)OC4=O)s2)cc1 (stereo unspecified)
→ 110	100
Cc1ccc(-c2noc(CN(C3CCCCC3)S(=O)(=O)c3ccc(Cl)cc3)n2)cc1
→ 112	112
Cc1ccc(NC(=O)Cn2c(=O)n(Cc3ccc4c(c3)OCO4)c(=O)c3ccccc32)cc1
→ 109	112
CCOc1ccccc1CNC(=O)C1CCN(c2nn3cc(-c4ccc(F)cc4)nc3s2)CC1
→ 104	106
CCn1c2ccccc2c2cc(NC(=O)COc3cc(C)c(Cl)c(C)c3)ccc21
→ 102	103
CCC(C(=O)NCc1cc(OC)ccc1OC)n1nc(C)c2sc3ccccc3c2c1=O (stereo unspecified)
→ 105	109
Cc1ccc(CNC(=O)c2nc(SCc3cccc(C)c3)ncc2Cl)cc1
→ 105	101
O=C(NCCc1csc2nc(-c3ccccc3F)nn12)c1ccccc1C(F)(F)F
→ 112	115
CCN(CC)C(=O)C1=C(C)Nc2nc3ccccc3n2C1c1cccc(Cl)c1 (stereo unspecified)
→ 104	110
CCCCn1c(=O)nc2n(-c3ccc(Br)cc3)c3ccccc3cc-2c1=O
→ 109	111
COc1ccc(-c2cc(C(=O)Oc3cccc(C)c3C)c3ccccc3n2)cc1
→ 102	103

# Full records, quoted from the list:
# Cc1cc(C)c(S(=O)(=O)NCc2csc(-c3ccccc3)n2)c(C)c1 is listed as Polio RdRp inh: 106; Polio RdRp inh intensity: 110
# CCCCN(CCCC)CC(O)Cn1cc(/C=C/C(=O)c2ccccc2)c2ccccc21 (stereo unspecified) is listed as Polio RdRp inh: 110; Polio RdRp inh intensity: 115

# Next results:
# Under each structure: Polio RdRp inh	Polio RdRp inh intensity
CCC(=O)N1CCCc2cc(S(=O)(=O)N3CCC(C(=O)Nc4ccccc4CC)CC3)ccc21
→ 109	99
O=C(NCCCN1CCN(c2ccc(F)cc2)CC1)c1sc2ncccc2c1-n1cccc1
→ 104	109
COc1cccc(CNC(=O)C2CCN(c3ncnc4c3nc3n4CCCCC3)CC2)c1
→ 100	94
CC(C)Sc1ncc(Cl)c(C(=O)Nc2ccc(S(=O)(=O)N3CCCCC3)cc2)n1
→ 110	114
Cc1oc2c(C)c3oc(=O)c(CC(=O)N4CCCCC4)c(C)c3cc2c1C
→ 107	112
Cc1ccc(CNC(=O)CCCc2nnc3n(CC(C)C)c(=O)c4sccc4n23)cc1
→ 115	123
Cn1c(=O)c2c(ncn2CC(=O)Nc2cccc(Cl)c2Cl)n(C)c1=O
→ 104	107
COc1ccc(OC)c(-c2cc(C(=O)NCc3ccc(Cl)cc3)no2)c1
→ 102	103
CCc1cccc(NC(=O)CN2C(=O)CN=C(c3ccccc3F)c3cc(Cl)ccc32)c1
→ 110	114
CN(C(=O)CSc1nc2ccc(NC(=O)COc3ccc(F)cc3)cc2s1)c1ccccc1
→ 108	109
COc1ccc(S(=O)(=O)Nc2cc3c(C(=O)OC(C)C)c(C)oc3c3ccccc23)cc1
→ 105	110
CC(C)c1ccc(NC(=O)C2CCCN(S(=O)(=O)c3ccc4[nH]c(=O)ccc4c3)C2)cc1 (stereo unspecified)
→ 128	122
Cc1cccc(CCNC(=O)c2ccc3c(c2)N(Cc2ccccc2F)C(=O)c2ccccc2S3)c1
→ 102	112
COc1ccc(CNC(=O)CCCn2nc(C)c3c(C)n(-c4ccc(C)cc4)nc3c2=O)cc1OC
→ 107	107

# Random excerpt: three records from the list.
# Under each structure: Polio RdRp inh	Polio RdRp inh intensity
Cc1ccc(CNC(=O)CCCc2nnc3n(CC(C)C)c(=O)c4sccc4n23)cc1
→ 115	123
COc1cccc(CNC(=O)C2CCN(c3ncnc4c3nc3n4CCCCC3)CC2)c1
→ 100	94
COc1ccc(CNC(=O)CCCn2nc(C)c3c(C)n(-c4ccc(C)cc4)nc3c2=O)cc1OC
→ 107	107

# Only part of the results is shown; count on the stated rates, not on these rows.
